High-throughput results from PubChem BioAssay.
Mtb bLac sens: beta-lactam sensitization of Mtb H37Rv. M. tuberculosis H37Rv growth with meropenem, percent inhibition; hits of this screen are not shown here. inhibition, % at 25 µM. 330,000 tested, 0.27% active;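 active means about 74% or more and at least 40 points above the plate without the antibiotic, then above 30% in a dose series; inconclusive means first-round hits that could not be retested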;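 further: growth measured after seven days incubation then overnight dye step; 0% = bacteria only wells and 100% = bacteria with antibiotic; twin plates without the antibiotic show which effects depend on it; some results filed as inactive read as strong as hits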
YopH inh: inhibitors of Yersinia enterocolitica YopH tyrosine phosphatase; inhibition, %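 (about 10 µM by stock and volumes)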; fluorescence Ex485/Em525; 140,000 tested, 0.16% active;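 active means inhibition of 50% or more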;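 further: controls were vehicle for no effect and minimum signal wells for full effect; inactives centre near -20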
Mtb growth: M. tuberculosis H37Rv growth inhibitors, H37Rv strain (AID 1626) | M. tuberculosis H37Rv growth inhibition; higher % means a stronger effect | inhibition, % at 10 µM; hits with a dose series show IC50 in µM | 220,000 tested, 0.95% active;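 active means confirmed in a dose series; inconclusive means inhibition above 80% but not taken into the dose series; inactive means below 80% or under 30% at every dose of the series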;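 further: bacteria incubated seven days before Alamar blue readout; 0% = bacteria only wells and 100% = bacteria with antibiotic wells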
Arbovirus inh: arbovirus infection inhibition; arbovirus infection cell-based antiviral screen; inhibition, % at 10 µM; 200,000 tested, 0.37% active;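 active means inhibition from about 30%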;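 further: bluetongue infection of BSR cells; cell survival read as ATP light after 72 h; 0% = infected wells without compound and 100% = uninfected wells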
RecA intein inh: blocks M. tuberculosis RecA intein splicing | P9WHJ3 | cell-free RecA intein splicing, fluorescence | inhibition, %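 (about 9 µM by stock and volumes)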 | 290,000 tested, 0.75% active | AID 2221; in the data active means inhibition above about 30%; inconclusive means no clear call, values can overlap the other calls;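 further: 0% = vehicle wells and 100% = reference inhibitor control wells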
Target sequence (P9WHJ3 whole entry, looked up): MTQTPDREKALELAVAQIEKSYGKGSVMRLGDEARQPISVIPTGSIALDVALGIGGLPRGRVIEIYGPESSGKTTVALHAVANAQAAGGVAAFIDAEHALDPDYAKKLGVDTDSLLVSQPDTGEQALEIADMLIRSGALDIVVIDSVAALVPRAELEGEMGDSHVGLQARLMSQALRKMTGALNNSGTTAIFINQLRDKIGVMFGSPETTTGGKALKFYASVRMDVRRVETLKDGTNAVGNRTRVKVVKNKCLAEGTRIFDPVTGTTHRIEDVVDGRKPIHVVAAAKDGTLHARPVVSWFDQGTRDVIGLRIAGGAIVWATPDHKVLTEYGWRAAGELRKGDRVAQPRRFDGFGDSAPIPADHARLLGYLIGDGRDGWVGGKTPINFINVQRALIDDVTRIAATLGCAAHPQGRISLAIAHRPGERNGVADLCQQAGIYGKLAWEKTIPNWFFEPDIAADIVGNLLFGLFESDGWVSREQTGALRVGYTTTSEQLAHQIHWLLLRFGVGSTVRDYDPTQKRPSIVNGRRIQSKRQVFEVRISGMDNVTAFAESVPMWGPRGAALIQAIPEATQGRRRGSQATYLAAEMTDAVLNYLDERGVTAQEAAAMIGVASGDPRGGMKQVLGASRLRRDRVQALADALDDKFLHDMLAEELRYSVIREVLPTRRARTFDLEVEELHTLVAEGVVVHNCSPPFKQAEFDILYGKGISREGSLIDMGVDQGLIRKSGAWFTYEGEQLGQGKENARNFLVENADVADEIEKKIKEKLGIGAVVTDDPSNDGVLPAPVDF
Arbovirus inh repeat: second read-out of Arbovirus inh, no call of its own (marks repeat the call); inhibition, %; measured here: 10K subset replicate screen; many hits read low in the repeat;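 first of two repeat runs on a subset; 0% = infected and 100% = uninfected wells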
An asterisk follows results filed as active; ? = inconclusive; · = not tested or not shown. A portion of the library; the hit share may differ from the screen's.

SMILES	Mtb bLac sens	YopH inh	Mtb growth	Arbovirus inh	RecA intein inh	others
CCOc1ccc(CN2CCN(CCCc3ccccc3)C(CCO)C2)cc1 (stereo not given)	0.1	·	·	·	-0.2
Cc1c(NC(=O)CSc2nnnn2-c2ccc(C(=O)O)cc2)c(=O)n(-c2ccccc2)n1C	4.6	·	-5.5%	6.0	-2.1
CCOc1ccc(/C=N/NC(=O)c2nnn(-c3nonc3N)c2COc2ccc(F)cc2)cc1	-4.7	·	·	·	-0.2
COc1ccc(C(=O)NNC(=S)NC2CCCCC2)cc1OC	6.7	-39.0	4.8%	6.6	0.4
CCCOC(=O)CN1C(=O)c2ccccc2C1=O	-11.3	-40.5	4.7%	3.0	-3.7
CCSc1nnc(CNc2ccc(F)cc2)n1CC1CCCO1 (stereo not given)	-11.3	-25.6	-13.6%	-3.1	·
CCCn1c(SCC(N)=O)nc2c(c1=O)C1(CCCC1)Cc1ccccc1-2	-1.8	-20.4	·	7.9	0.6
COC(=O)N/N=C(\C)c1cccs1	-1.1	·	-19.4%	·	-1.3
Cc1csc(NC(=O)c2cc([N+](=O)[O-])cc([N+](=O)[O-])c2)n1	99.0	-28.1	11.1µM*	-1.0	-0.8
O=c1c(-c2ccccc2Cl)c[nH]n1-c1ccccc1	5.2	·	·	·	-0.9
C[C@@H]1C[C@@H]2O[C@H]2/C=C\C=C\C(=O)Cc2c(Cl)c(O)cc(O)c2C(=O)O1	29.7	·	8.6%	-0.7	-1.0
Cc1ccc(NC2=C(Cl)C(=O)OC2NC(=O)c2ccccc2)cc1 (stereo not given)	6.5	-13.3	6.7%	-1.2	0.5
COc1cc(C(=O)OCCNC(=O)c2ccccc2)cc(OC)c1OC	-1.6	·	·	·	-1.7
Cc1nc2c(Cl)cccc2c2c1CC(CBr)O2 (stereo not given)	2.9	·	·	·	3.3
Cn1cnc([N+](=O)[O-])c1Oc1ccc2ccccc2c1	94.5	6.8	13.9%	-4.4	36.3*
CC(C)c1nnc(SCC(=O)NC2CCCCC2)n1C	0.9	·	·	·	-2.2
COc1ccc(S(=O)(=O)NCc2ccncc2)cc1NC(=O)c1ccccc1	-9.6	·	·	·	0.3
CS(=O)(=O)Nc1ccc(C(=O)N2CC(=O)Nc3ccccc32)cc1	0.0	·	·	·	0.6
CN1CC(C(=O)Nc2ccc(F)c(Cl)c2)CC1=O (stereo not given)	2.8	·	·	·	-4.3
Cc1ccc2nc(SCC(=O)NCCc3ccccc3)nc(=O)n2c1	3.5	·	·	·	-1.5
COc1ccc(-n2c(=S)[nH]c(=O)c3cccnc32)cc1	-0.1	·	14.7%	·	-2.5
CCC(=O)O[C@@H]1[C@@H](OC(C)=O)[C@@]2(O)C(C[C@H](O)C2(C)C)[C@](C)(O)[C@H]2CC[C@@H]3[C@@H](O)[C@]12C[C@@]3(C)O (stereo not given in full)	-11.8	-37.9	-7.6%	0.2	-0.8
CCC(=O)Nc1nc(C)c(Oc2ccccc2)c(=O)[nH]1	-13.5	-46.9	4.5%	-3.3	0.5
Cc1ccc(/C=N/NC(=O)c2ccco2)s1	-9.4	-35.1	-0.9%	-6.5	-1.8
Cc1ccc(C(=O)N/C(=C/c2cccnc2)C(=O)N2CCCCCC2)cc1	-10.3	·	·	·	-1.6

Structures above that contain an aryl methoxy group:
SMILES	Mtb bLac sens	YopH inh	Mtb growth	Arbovirus inh	RecA intein inh	others
COc1ccc(C(=O)NNC(=S)NC2CCCCC2)cc1OC	6.7	-39.0	4.8%	6.6	0.4
COc1cc(C(=O)OCCNC(=O)c2ccccc2)cc(OC)c1OC	-1.6	·	·	·	-1.7
COc1ccc(S(=O)(=O)NCc2ccncc2)cc1NC(=O)c1ccccc1	-9.6	·	·	·	0.3
COc1ccc(-n2c(=S)[nH]c(=O)c3cccnc32)cc1	-0.1	·	14.7%	·	-2.5

3 structures out of the list, arranged by heavy-atom count, ascending:
SMILES	Mtb bLac sens	YopH inh	Mtb growth	Arbovirus inh	RecA intein inh	others
CCC(=O)Nc1nc(C)c(Oc2ccccc2)c(=O)[nH]1	-13.5	-46.9	4.5%	-3.3	0.5
COc1ccc(S(=O)(=O)NCc2ccncc2)cc1NC(=O)c1ccccc1	-9.6	·	·	·	0.3
Cc1c(NC(=O)CSc2nnnn2-c2ccc(C(=O)O)cc2)c(=O)n(-c2ccccc2)n1C	4.6	·	-5.5%	6.0	-2.1

(listing goes on)
SMILES	Mtb bLac sens	YopH inh	Mtb growth	Arbovirus inh	RecA intein inh	others
NS(=O)(=O)c1ccc(NC(=O)N2c3ccccc3Sc3ccccc32)cc1	0.3	1.7	-1.2%	7.5	4.4
COc1ccc(CN2CCCCC2C(=O)Nc2ccc(OC)c(OCC(C)C)c2)cc1OC (stereo not given)	7.3	-14.3	11.7%	-10.1	-1.9
O=C(/C=C/c1cccs1)Nc1nc(-c2ccccc2)cs1	?	-24.4	-0.1%	24.9	10.9
O=C(NCCn1cc(SCc2ccc(F)cc2)c2ccccc21)c1c(F)cccc1F	-8.3	-19.0	7.3%	-0.9	3.4
COc1ccc2c(c1)CC1c3c(cc4c(c3-2)OCO4)CC[N+]1(C)[O-] (stereo not given)	22.3	·	4.8%	·	4.5
Oc1ccccc1-c1cc(-c2ccccc2Cl)[nH]n1	91.0	-19.2	9.6%	-8.3	2.1
CCn1c(COc2cccc3cccnc23)nnc1SC(F)F	0.1	·	-0.3%	6.2	-1.1
O=C(CCSc1ccc(Cl)cc1)NCc1ccncc1	-8.1	·	2.0%	22.3	-2.2
COc1ccc(C(=O)NCc2csc(C)n2)cc1OC1CCN(C(C)=O)CC1	-4.8	·	·	·	1.3
c1coc(C2Nc3cccc4cccc(c34)N2)c1	-1.4	-3.0	-0.9%	-2.6	5.5
CC(C)[C@H](NC(=O)[C@@H]1CSC2c3ccccc3C(=O)N21)C(=O)NCc1ccco1 (stereo not given in full)	5.2	·	·	·	3.6
COc1ccc(NC(=O)CN(C)C(=O)CCCN2C(=O)c3cccc4cccc(c34)C2=O)cc1	-0.5	·	·	·	-0.7
COC(=O)c1c(C)nc2nonc2c1N	1.2	·	3.6%	2.1	-53.9
Cc1c(C(=O)NCc2cccnc2)oc2ccc(S(=O)(=O)N3CCC4(CC3)OCCO4)cc12	-0.7	-28.6	-16.1%	18.5	0.0
CCCCn1c(NC(C)CC)nc2c1c(=O)[nH]c(=O)n2C (stereo not given)	-5.2	-35.0	-3.6%	-0.1	-2.6
CC1(C)CC(=O)C2=C(C1)N(Cc1cccnc1)C(=O)C2(NC(=O)C1CC1)C(F)(F)F (stereo not given)	-1.5	5.7	4.3%	4.9	1.0
Cc1ccc(CNc2ncccc2-c2nc3cc(Cl)ccc3o2)cc1	2.6	-35.1	-4.7%	0.4	4.6
Cc1cc(C)cc(NC(=O)N2CCCC2C(=O)Nc2ccc(-n3cnnn3)cc2)c1 (stereo not given)	6.3	-29.3	10.5%	2.7	·
COc1ccc2c(CN3CCN(S(=O)(=O)c4cccs4)CC3)cc(=O)oc2c1	-4.4	-20.9	1.0%	-0.3	1.4
Cc1cccc(N2CCN(S(=O)(=O)c3ccc4c(c3)NC(=O)CO4)CC2)c1C	3.1	·	·	·	2.0
O=C(CN1C(=O)C(c2ccccc2)Oc2cccnc21)NCc1ccccc1F (stereo not given)	0.8	·	·	·	0.8
CCNC(=O)c1ccc(C2SCC(=O)N2Cc2ccco2)cc1 (stereo not given)	-2.2	-5.6	5.0%	2.7	·
O=C(CSc1nc2ccccc2c(=O)n1-c1ccccc1)c1c[nH]c2ccccc12	6.5	-5.4	-0.5%	-6.0	0.1
Cc1[nH]c2ccc(C(=O)O)cc2c1C	-1.6	-24.2	1.5%	-0.1	-4.4
COc1ccc(Cc2nn[nH]n2)cc1	-3.0	8.0	-4.0%	5.3	-2.7

Further records follow:
SMILES	Mtb bLac sens	YopH inh	Mtb growth	Arbovirus inh	RecA intein inh	others
Cc1c(NC(=O)c2ccc(CC(C)C)o2)c(=O)n(-c2ccccc2)n1C	10.9	·	·	·	-1.7
CC1(C)CC(NCCC(c2ccccc2)c2ccco2)CCO1 (stereo not given)	-6.1	·	-0.3%	·	-0.1
CCOC(=O)C1C2NC(=O)N(Cc3ccccc3)C1(C)Oc1c(OC)cccc12 (stereo not given)	-0.3	-23.5	7.3%	4.0	-1.1
COc1ccc(C(=O)N2CCN=C2SCc2cccnc2)c(OC)c1	-1.5	-33.5	3.3%	3.9	·
CCOC(=O)N1CCN(C(=O)c2cnc3n(c2=O)CCS3)CC1	-7.7	-23.9	3.5%	-1.5	-2.2
Nc1nc(N2CCOCC2)nc2ccccc12	-2.6	-13.2	-3.0%	14.5	-0.6
COc1ccccc1NC(=O)Cn1cc(C#N)c2ccccc21	-6.5	-17.4	-8.2%	-4.1	0.0
CC(C)(C)OC(=O)N1CCOCCOCCN(C(=O)OC(C)(C)C)CCOCCOCC1	2.9	-17.7	-0.1%	7.6	-2.9
C/C=C/c1ccc(OCC(=O)OCc2csc(CC(=O)Nc3ccccc3C)n2)c(OC)c1	82.2	·	·	·	0.9
Cc1ccc2c(CN3CCN(Cc4ccccc4)CC3)cc(=O)oc2c1	41.9	·	·	·	-0.7
CCOc1ccc(C(=O)Nc2ccc3c(c2)OCCO3)cc1OC	4.3	29.6	-5.5%	0.6	-0.5
O=C(NCc1ccco1)c1ccccc1NS(=O)(=O)c1ccc2c(c1)OCCO2	3.4	0.6	-6.2%	7.1	-15.1
CCCCNC(=O)COC(=O)CNC(=O)c1cc(Cl)cc([N+](=O)[O-])c1	3.5	·	-8.3%	15.4	-3.1
O=C(Nc1c(F)cc(F)cc1Br)c1cc(S(=O)(=O)N2CCN(c3ccccn3)CC2)ccc1F	0.4	·	-0.2%	14.3	0.5
Cc1ccccc1N1CC(O)(c2cccs2)[N+]2=C1CCCC2 (stereo not given)	-1.6	·	·	-6.8	-3.0
C/C(=C\C(=O)c1ccccc1)Nc1ccc(O)cc1	-1.5	6.3	-1.7%	-28.2	-5.3
O=C(N/N=C/c1cccc([N+](=O)[O-])c1)C1COc2ccccc2O1 (stereo not given)	3.4	·	-0.9%	1.2	-0.6
COC(=O)c1ccc(NC(=O)C2C3CCC(C3)C2C(=O)O)cc1 (stereo not given)	21.4	-29.3	0.2%	1.6	2.5	Arbovirus inh repeat=1.3
O=C(Nc1cccc2nsnc12)c1ccc(-c2cccc(Cl)c2)o1	28.8	14.6	-6.8%	-1.8	·
Cc1cccc(N=Nc2c(N)n[nH]c2-c2ccc(Cl)cc2)c1	99.8	-21.9	59.1µM*	10.6	4.3
COc1ccc(NC(=O)CCC2CCCC2)cc1OC	89.0	-10.0	4.3%	10.4	0.3
Cc1nn(-c2ccccc2)c2sc(-c3nnc(SCC(=O)O)o3)cc12	23.4	-54.6	8.0%	-25.1	0.6
COc1ccccc1OCC(=O)N1CCCC(Nc2ccc(F)c(F)c2)C1 (stereo not given)	-2.6	·	·	·	0.1
C=CCNC(=S)NNC(=O)c1cccnc1	-6.5	·	-4.0%	·	-2.2
Cc1cc(C)c(N2C(=O)C3C4CC(=O)C(c5ccccc54)C3C2=O)c(C)c1 (stereo not given)	-7.9	·	-6.7%	·	0.2

Additional entries.
SMILES	Mtb bLac sens	YopH inh	Mtb growth	Arbovirus inh	RecA intein inh	others
Cc1cc(=O)[nH]c2c(C)cc(S(=O)(=O)N3CCCCC3)cc12	0.4	·	·	·	-1.6
Cc1onc(C(=O)Nc2sc3c(c2C#N)CCCC3)c1[N+](=O)[O-]	56.9	·	4.7%	12.1	-1.5
COc1ccc(-n2ccc(=O)c(C(=O)O)n2)cc1	-3.5	·	·	·	1.1
Cc1cccc(C(=O)N/N=C/c2cc(Br)c(Br)o2)c1	4.4	-15.0	8.3%	-13.5	-1.7
CSc1ccc(-c2nc(CSCC(=O)NC3CC3)c(C)o2)cc1	-1.4	·	·	·	1.5
COc1ccc(F)cc1CN1CCN(C(=O)CCC(=O)Nc2nnc(C(C)C)s2)CC1	-8.3	-39.1	-7.3%	-2.7	-2.1
O=C(OCc1nc2ccccc2[n+]([O-])c1C(=O)c1ccccc1)c1cccnc1	0.5	·	3.5%	·	1.4
Cc1ccc(OCc2cc(C(=O)N3CCN(CC(=O)NC(C)C)CC3)no2)cn1	7.2	·	·	·	-0.6
CCS(=O)(=O)Nc1ccc2c(c1)OCO2	-7.7	·	-2.5%	-7.1	2.1
CN(C)CCNc1nc2c(c(=O)[nH]c(=O)n2C)n1CCOc1ccccc1	-6.9	·	·	·	-2.4
N/C(=N\OC(=O)c1ccccc1)c1ccccn1	2.5	·	-5.6%	-7.2	0.6
O=C1Nc2cc(C(=O)NCCCN3CCCC3)ccc2S/C1=C\c1ccccc1	6.2	·	·	·	1.5
Cc1ccc(OCCC(=O)OC(C)C(=O)Nc2c(C)n(C)n(-c3ccccc3)c2=O)cc1 (stereo not given)	0.8	·	·	·	-0.8
Cc1ccc(NCc2ccc(Cl)nc2)c(NCc2ccc(Cl)nc2)c1	-6.7	·	-1.8%	-7.5	1.2
